Screening results from PubChem.
Rce1 inhib – blocks yeast Ras-converting enzyme; Q03530; yeast membranes, quenched prenylated peptide cleavage fluorescence; calls only; 290,000 compounds, 0.27% hits; AID 2563;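 active means fall in fluorescence gain of 50% or more versus controls, with final raw signal at or below 3038400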;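 further: plate controls were neutral control wells for no effect and wells lacking membranes for full effect; tested at 10 µM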
Target sequence (Q03530 whole entry, looked up): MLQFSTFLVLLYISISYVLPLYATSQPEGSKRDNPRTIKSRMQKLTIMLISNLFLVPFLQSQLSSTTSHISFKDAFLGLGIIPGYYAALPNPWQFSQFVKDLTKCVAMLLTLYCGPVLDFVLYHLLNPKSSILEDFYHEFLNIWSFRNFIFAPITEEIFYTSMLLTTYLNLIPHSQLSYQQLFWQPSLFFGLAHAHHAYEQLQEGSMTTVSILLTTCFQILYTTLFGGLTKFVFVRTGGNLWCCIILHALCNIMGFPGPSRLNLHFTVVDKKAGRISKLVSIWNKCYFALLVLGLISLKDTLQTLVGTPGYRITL
PABP polyA inh – blocks human PABP binding to poly(A) RNA. P11940. fluorescence polarization. inhibition, % at 35 µM. 290,000 compounds, 1% hits;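 active means 50% or more with normal probe brightness, or confirmed in later tests; about a fifth of its hits are not listed in these tables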;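 further: calls also rest on retests at 20 µM and on dose response follow-up; controls were probe without protein and protein plus probe with vehicle; some compounds called inactive have numbers as strong as hits; many hits fall short of the cut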
Target sequence (P11940 whole entry, looked up): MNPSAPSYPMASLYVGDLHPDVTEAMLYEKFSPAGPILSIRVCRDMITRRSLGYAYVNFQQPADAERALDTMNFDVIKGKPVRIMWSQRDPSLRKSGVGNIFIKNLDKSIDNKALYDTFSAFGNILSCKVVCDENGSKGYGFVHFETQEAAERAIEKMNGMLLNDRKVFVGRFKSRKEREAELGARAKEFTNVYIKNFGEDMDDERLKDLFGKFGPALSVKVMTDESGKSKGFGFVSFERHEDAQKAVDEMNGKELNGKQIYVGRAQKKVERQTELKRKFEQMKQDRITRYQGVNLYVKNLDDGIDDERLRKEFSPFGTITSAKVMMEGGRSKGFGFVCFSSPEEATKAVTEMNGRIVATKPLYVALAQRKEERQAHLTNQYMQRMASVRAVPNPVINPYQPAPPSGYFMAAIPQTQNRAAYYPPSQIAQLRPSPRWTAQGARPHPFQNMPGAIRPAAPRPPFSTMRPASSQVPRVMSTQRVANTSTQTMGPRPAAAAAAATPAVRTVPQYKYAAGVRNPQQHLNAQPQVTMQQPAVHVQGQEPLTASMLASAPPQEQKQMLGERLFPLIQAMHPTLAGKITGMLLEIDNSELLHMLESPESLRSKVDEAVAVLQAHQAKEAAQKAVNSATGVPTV
UUG fidelity – modulators of start codon recognition fidelity in yeast | S. cerevisiae UUG-firefly luciferase reporter, luminescence/redox ratio | activity score, % at 18.7 µM | 350,000 compounds, 0.13% hits;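 active means replicate mean at a twofold rise or more, about +100% in these data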;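 further: firefly luciferase made from a UUG start codon reports start codon fidelity; reporter light over untreated wells divided by growth signal over untreated wells; some hits fall short of that in this replicate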
MT1-MMP act inh – MT1-MMP (human) activation inhibition. P50281. HT1080 RFP-PRO-GFP cells, GFP/RFP ratio fluorescence, overnight; percent of plate control window, DMSO zero. GFP/RFP ratio change, % at 20 µM. 360,000 compounds, 0.061% hits;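 active means GFP/RFP ratio change of at least 30% with cell ATP level not reduced by more than half and red fluorescence within 50% of control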; further: strong numbers were not always called active
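Test system: HT1080 cells expressing an RFP-PRO-GFP fluorescent reporter construct / Compound dosing: single-point 20 µM compound, 1% DMSO / Schedule: cells overnight before dosing, compound overnight, 37 °C, 5% CO2 / Evaluation: GFP/RFP fluorescence ratio / Control set: DMSO and RFP-L50D-GFP cell wells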
eIF4H FP inh – inhibitors of RNA binding by human eIF4H; Q15056; eIF4H fluorescence polarization binding assay; inhibition, % at 35 µM; 290,000 compounds, 0.94% hits; AID 2012;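 active means 50% or more with normal probe brightness, or confirmed in later tests; about a fifth of its hits are not listed in these tables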;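 further: calls also rest on retests at 20 µM and on dose response follow-up; 0% = protein and probe with vehicle and 100% = probe without protein; strong numbers were not always called active; many hits fall short of the cut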
HIV Env fusion – inhibitors of HIV Env-mediated cell fusion; 360,000 compounds, 1.1% hits; inhibition, % at 12.3 µM; AID 651610; HeLa-JRFL Env/CEM21 cell fusion, luciferase;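 active means mean replicate inhibition score of at least 50 and every replicate individually at or above 50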;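 further: 0% = plate neutral controls and 100% = maraviroc near 300 nM; one replicate is shown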
CSC inhib – blocks cancer stem cells. cancer stem cell-like cells viability, luminescence. inhibition, % at 7.5 µM. 300,000 compounds, 1.1% hits;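 active means mean at 75% or more and at least half the replicates too; tested in HMLE shEcad cells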;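 further: 0% = median of negative and 100% = median of positive control wells; the first replicate is given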
MT1-MMP act inh RFP – recorded beside MT1-MMP act inh, whose call it bears; RFP signal change, %; measured here: RFP expression control read;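 0 = vehicle wells; hits needed this value within 50% of zero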
Starred values were filed as active, the others as inactive; i = inactive; . = not tested or not shown. Only part of the results is shown (hit frequency here may not be typical).

SMILES | Rce1 inhib | PABP polyA inh | UUG fidelity | MT1-MMP act inh | MT1-MMP act inh RFP | eIF4H FP inh | HIV Env fusion | CSC inhib
COc1ccc(N2CCN(CC(=O)Nc3nc4c(s3)CC(C)CC4)CC2)cc1 (stereo not drawn) | i | -5 | . | 0 | -6 | 0 | . | 0
CS(=O)(=O)NCCSCc1ccco1 | i | 29 | -10 | 1 | -2 | 34 | . | -17
CS(=O)(=O)c1ccc2nc(NC(=O)c3cc([N+](=O)[O-])cc([N+](=O)[O-])c3)sc2c1 | i | 12 | -7 | -2 | 1 | 2 | 3 | 7
CC12CCC(C(=O)NCc3ccccc3Cl)(C(Br)C1=O)C2(C)C (stereo not drawn) | i | 6 | -12 | 2 | 5 | 0 | 22 | 10
COCCOC(=O)C1=C(C)Nc2ncnn2C1c1ccccc1 (stereo not drawn) | i | 0 | -21 | -1 | 1 | 1 | -10 | -4
C=CCc1cccc(CNc2ccc(Br)cc2)c1O | i | -1 | . | 5 | 1 | -8 | -1 | -3
Cc1oc(-c2ccc(Cl)cc2)nc1CN1CCCC(C(=O)NCc2cccnc2)C1 (stereo not drawn) | i | -2 | -7 | -4 | -21 | -6 | 87* | -16
CCCc1cc(=O)oc2cc(C)cc(OCC(=O)NCc3ccccn3)c12 | i | 0 | -16 | -6 | -2 | -12 | 10 | -9
Cc1ccc(NS(=O)(=O)c2ccc(C(=O)NCc3cccnc3)cc2)cc1 | i | -10 | -5 | -3 | -12 | -16 | 21 | 9
CC1(C(=O)NS(=O)(=O)Cc2ccccc2)CCN1C(=O)Cc1ccc(-c2ccccc2)cc1 (stereo not drawn) | . | . | 3 | 0 | -1 | . | 8 | .
Cc1nn(Cc2ccccc2)c(C)c1NC(=O)CSc1n[nH]c(C)c1[N+](=O)[O-] | i | 0 | . | 3 | 0 | -4 | 6 | -5
Cn1c(=O)c2sccc2n2c(CCCC(=O)NCCc3ccc(S(N)(=O)=O)cc3)nnc12 | . | 4 | -8 | 1 | 3 | -12 | 3 | -18
c1ccc2[nH]c(CN3CCOCC3)nc2c1 | i | -12 | -16 | 3 | 4 | -7 | -9 | -25
COc1cccc(NC(=O)Nc2cc(C(=O)NCC3CCCO3)ccc2N2CC3CC(C2)c2cccc(=O)n2C3)c1 (stereo not drawn) | i | . | 8 | 1 | 1 | . | 5 | 7
CCn1c(SCC(=O)Nc2nccs2)nnc1-c1ccncc1 | i | 3 | -11 | 0 | 0 | -16 | -33 | -14
O=C(Nc1ccc(Cl)cc1)N1CCOC12CCCCC2 | . | 8 | . | 2 | -2 | 19 | 0 | -9
Cc1ccc(S(=O)(=O)NCCC(=O)Nc2ccc(Cl)c(Cl)c2)cc1 | i | 1 | . | 1 | 2 | -7 | 14 | 7
CCN1CCN(S(=O)(=O)c2ccc(Cl)c(C(=O)N(CC)Cc3ccccc3)c2)CC1 | . | . | -15 | 4 | -2 | . | 4 | .
COc1ccc(-c2cc3c(=O)n(CC(=O)NCc4ccc(Cl)cc4)ncn3n2)cc1 | i | -27 | -9 | 3 | 4 | -2 | -11 | 3
CCN(c1cccc(C)c1)S(=O)(=O)c1cccc2nsnc12 | i | 10 | -10 | -1 | 0 | 2 | 11 | 5
CN(C1=C(NC(=O)c2ccc(Cl)cc2)C(=O)c2ccccc2C1=O)c1ccccc1 | i | -8 | . | 7 | -7 | -16 | 3 | 64
Cc1csc(CNc2ncnc3ccc(-c4ccc5c(c4)OCO5)cc23)c1 | . | . | -8 | 8 | -9 | . | 61* | -12
Cc1ccccc1Nc1nc(N)nc(CN2CCN(Cc3ccc4c(c3)OCO4)CC2)n1 | i | -14 | . | 3 | 1 | 1 | 5 | 4
O=C(CNC(=O)C1CCCCC1)Nc1cc(Cl)ccc1Cl | i | -6 | -3 | -1 | -4 | 2 | 2 | 6
Cc1ccc(C(=O)N2CCC(C(=O)NC3CCCCCC3)CC2)cc1 | i | 1 | 7 | 4 | -1 | -1 | 7 | 12

With a hit mark in HIV Env fusion, among the entries above:
SMILES,Rce1 inhib,UUG fidelity,MT1-MMP act inh,MT1-MMP act inh RFP,HIV Env fusion
Cc1oc(-c2ccc(Cl)cc2)nc1CN1CCCC(C(=O)NCc2cccnc2)C1 (stereo not drawn),i,-7,-4,-21,87*
Cc1csc(CNc2ncnc3ccc(-c4ccc5c(c4)OCO5)cc23)c1,.,-8,8,-9,61*

Further compounds:
SMILES | Rce1 inhib | PABP polyA inh | UUG fidelity | MT1-MMP act inh | MT1-MMP act inh RFP | eIF4H FP inh | HIV Env fusion | CSC inhib
O=C(COC(=O)c1ccc2c(c1)S(=O)(=O)N=C1CCCCCN12)NCc1cccs1 | i | -4 | -17 | -1 | 0 | -7 | -2 | -2
O=c1nc(Nc2ccccc2)sc2ccc([N+](=O)[O-])cc12 | i | 40 | . | -1 | 2 | 13 | -3 | 5
Cc1ccc(Sc2ncccc2C(=O)N(C)Cc2cccs2)c(C)c1 | i | -13 | -10 | 4 | -1 | -5 | 1 | -12
O=C(COc1cccc2cccnc12)Nc1ccccc1 | i | 49 | . | -1 | 0 | 2 | -13 | 6
CCOc1ccc(/C=C/C(=O)c2ccccc2)cc1 | i | 2 | -43 | 2 | 1 | 0 | -35 | -1
COc1cc(Cl)c(C)cc1NC(=O)CSc1nnc(-c2ccco2)n1CC(C)C | i | -1 | -5 | -74 | -56 | 9 | 42 | 5
Nc1c(S(=O)(=O)c2ccccc2)c2nc3ccccc3nc2n1C1CC1 | i | -4 | . | 9 | 3 | -5 | 19 | -8
O=C(/C=C1\NC2(CCCC2)Cc2ccccc21)N1CCOCC1 | i | 35 | -9 | 1 | 0 | 0 | . | -4
CC(=O)N/C(=C\c1ccccc1)C(=O)OCC(=O)c1ccc(F)cc1 | i | . | -17 | -3 | -1 | . | -9 | -4
O=C(COc1ccccc1)NNC(=O)COc1ccc([N+](=O)[O-])cc1 | i | 4 | . | 4 | 1 | 6 | -15 | -7
Cc1ccc(-c2nnc(SCC(=O)OC(C)C)n2N)cc1 | i | -15 | -11 | 7 | 4 | -10 | -81 | -3
CN(Cc1ccccc1)CC1CCCN(CCc2ccccc2F)C1 (stereo not drawn) | i | 14 | -4 | 2 | 3 | -4 | 14 | 35
CCOc1ccc(-n2ccn(CC(=O)NCCc3ccccc3)c(=O)c2=O)cc1 | i | . | . | -3 | 8 | . | 13 | .
Cc1ccc(C(=O)Nc2ccc3c(c2)C(=O)N(CC2CCCO2)C3=O)cc1 (stereo not drawn) | i | -4 | 9 | -1 | -15 | 1 | 11 | -10
COc1ccc(C)cc1/C=C/C(=O)N1CCN(S(=O)(=O)c2cccs2)CC1 | . | . | -9 | 7 | 4 | . | -10 | .
COc1ccc([N+](=O)[O-])c(OC)c1C(=O)NC(=O)Nc1c(C)cccc1C | i | 0 | -7 | 3 | 7 | 2 | 9 | -22
COc1ccc(Cl)cc1NC(=O)COc1cccc(-n2cnnn2)c1 | i | 7 | . | 4 | 5 | -2 | -47 | 15
CCCCc1ccc(-c2nc(NC(=O)C3C4CCC(O4)C3C(=O)O)sc2C)cc1 (stereo not drawn) | i | -3 | . | . | . | 3 | . | 2
CCCCCOC(=O)Cc1c(O)c2ccccc2n(C)c1=O | . | -1 | 6 | 1 | 4 | 4 | 20 | -4
CCN(/N=C/C=C/c1ccccc1)c1cc(=O)n(C)c(=O)[nH]1 | i | 0 | . | 6 | 1 | -6 | -10 | 4
O=C1[C@H](CC[C@H](O)c2ccc(F)cc2)[C@@H](c2ccc(O)cc2)N1c1ccc(F)cc1 | i | 1 | . | . | . | 5 | . | 2
Cc1ccc(-c2nn(-c3cc(Cl)ccc3[N+](=O)[O-])c(=O)c3ccccc23)cc1C | . | 5 | -9 | -8 | -7 | 4 | . | .
COCCNC(=O)CSc1nc2ccccc2c(=O)n1-c1cccc(OC)c1 | i | 12 | . | 4 | 3 | -7 | 11 | .
CCn1c(=O)c2ccccc2n(CC(=O)N2CCCc3ccccc32)c1=O | i | -1 | -2 | 4 | 0 | -6 | 10 | -9
CN(C)CCCn1c2c(c(SCC(=O)Nc3ccc4c(c3)OCCO4)nc1=O)CCC2 | i | . | -8 | -2 | 2 | . | -12 | 11

Three records drawn at random from the list so far, as already listed:
SMILES | Rce1 inhib | PABP polyA inh | UUG fidelity | MT1-MMP act inh | MT1-MMP act inh RFP | eIF4H FP inh | HIV Env fusion | CSC inhib
CN(C1=C(NC(=O)c2ccc(Cl)cc2)C(=O)c2ccccc2C1=O)c1ccccc1 | i | -8 | . | 7 | -7 | -16 | 3 | 64
O=C(/C=C1\NC2(CCCC2)Cc2ccccc21)N1CCOCC1 | i | 35 | -9 | 1 | 0 | 0 | . | -4
CS(=O)(=O)c1ccc2nc(NC(=O)c3cc([N+](=O)[O-])cc([N+](=O)[O-])c3)sc2c1 | i | 12 | -7 | -2 | 1 | 2 | 3 | 7

New compounds follow
SMILES | Rce1 inhib | PABP polyA inh | UUG fidelity | MT1-MMP act inh | MT1-MMP act inh RFP | eIF4H FP inh | HIV Env fusion | CSC inhib
COc1ccccc1NC(=O)Cc1csc(NC(=S)Nc2ccccc2)n1 | i | -2 | -31 | 22 | -14 | -11 | 21 | 2
NC(=O)c1ncc(C(F)(F)F)cc1Oc1ccc(F)cc1 | i | 2 | -8 | 1 | 5 | -4 | . | 0
CC(NC(=O)c1ccccc1)c1ccc(F)cc1 (stereo not drawn) | i | -8 | . | -2 | -6 | 0 | 12 | -13
Cn1c(=O)n(CCc2ccccc2)c(=O)c2c1nc1n2CCCN1Cc1ccccc1 | i | -8 | 7 | 0 | -16 | -10 | . | 19
COc1ccc(C2CC(c3ccccc3)=NN2C(=O)COC(=O)c2cccnc2)cc1 (stereo not drawn) | i | 3 | . | 2 | 2 | 2 | . | -6
O=C(NNc1ccccc1)/C(=C\c1cccnc1)NC(=O)c1ccccc1 | i | 0 | . | 0 | -2 | -12 | -6 | 42
Cc1nnc(-c2cnn(C)c2N)n1CCCN1CCOCC1 | i | -6 | -11 | 3 | 4 | -20 | 2 | 0
CCS(=O)(=O)N1CCC(C(=O)N2CCc3ccccc3C2)CC1 | i | -6 | -9 | 3 | 6 | 1 | . | -1
CCOc1ccc2[nH]c(=O)c(CN(Cc3ccc(F)cc3)C(=O)N3CCCC3)cc2c1 | i | 0 | -8 | -12 | -4 | -13 | 7 | -3
CC(=O)N1CCC(N(CCCOC(C)C)S(=O)(=O)c2ccc([N+](=O)[O-])cc2)CC1 | i | 4 | 13 | 0 | -1 | -5 | -3 | -1
Cc1c(C)c(C)c(S(=O)(=O)N2CCSCC2)c(C)c1C | i | 0 | . | 4 | 6 | -2 | 10 | 9
CCOC(=O)c1cc(-c2ccccc2C)n(Cc2cc(C)no2)n1 | . | . | -5 | 0 | 0 | . | 2 | 2
CC(C)c1ccc(NC(=O)CCNS(=O)(=O)c2cc(Br)cnc2N)cc1 | i | -3 | -17 | 6 | 3 | -3 | 33 | 20
O=C(N/N=C/c1ccc(COc2ccc(Br)cc2)o1)c1ccco1 | i | 0 | -6 | 7 | 2 | -5 | -20 | 10
CC(=O)N1N=C(c2cccc(NS(=O)(=O)c3ccc(C)cc3)c2)CC1c1ccco1 (stereo not drawn) | i | 2 | -18 | -3 | -11 | -15 | -7 | 10
O=c1oc2cc(OCc3ccc(F)cc3F)ccc2cc1-c1ccc2ccccc2n1 | i | -9 | . | . | . | 1 | . | 10
CCN(c1ccccc1)S(=O)(=O)c1cccc(C(=O)N2CCN(S(=O)(=O)c3ccccc3)CC2)c1 | i | 5 | 24 | -7 | -5 | 4 | 24 | .
CC1(C(=O)N2CCC(CC3CC(c4cccc(Br)c4)=NO3)(C(=O)NCC3CCCCC3)CC2)CC1 (stereo not drawn) | i | 8 | -6 | -2 | -7 | 5 | -20 | 21
O=C(NCc1cccnc1)c1cc(C2CCCN(C(=O)C3CCCCC3)C2)on1 (stereo not drawn) | . | . | -10 | 2 | 3 | . | 39 | .
Nc1ccccc1C(O)(Cc1ccccc1)c1ccccc1 (stereo not drawn) | i | 21 | -4 | -1 | -3 | -11 | 6 | 5
O=C(Cn1c(NCCO)nc2ccccc21)NCCc1ccccc1 | . | -12 | -5 | -9 | -1 | -4 | . | -17
